UCH37 inh: inhibitors of human UCH37 deubiquitinase, primary screen, biochemical, Ub-AMC cleavage, fluorescence. inhibition, % (concentration not given with the values). 330,000 tested, 0.33% active. Ubiquitin carboxyl-terminal hydrolase isozyme L5 (Homo sapiens), Q9Y5K5. purified proteasome/UCH37. AID 588478, 2011;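 active = mean of two replicates above 20%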;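 also: 0% = compound-free wells with enzyme and 100% = wells lacking proteasome; stock transfer was 100 nL into about 20 µL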
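Test system – human UCH37 enzyme supplied as purified proteasome complex · Incubation – 30 min preincubation with enzyme, 25 min cleavage at room temperature · Detection – AMC fluorescence from Ub-AMC cleavage, excitation 355 nm, emission 460 nm · Benchmarks – no-proteasome wells (full inhibition) and compound-free wells (no inhibition)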
FGF22 binding: binders of human FGF22 protein, primary screen, FGF22 synaptogenesis inhibitor project, biophysical, thermal shift, single point; Fibroblast growth factor 22 (Homo sapiens), Q9HCT0; recombinant FGF22 thermal shift, SYPRO orange fluorescence; percent of sucrose octasulfate shift, DMSO zero; calls only at 9.99 µM; 340,000 tested, 1.5% active; AID 651658, 2012;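 active = melting point raised past a set limit in the mean and every replicate; three in four hits are not shown here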
Beta2AR agonist: beta2AR agonists driving receptor internalization, primary screen, cell-based, FAP fluorogen, flow cytometry. Am2.2-beta2AR cells; reference of the scale not given here. Beta-2 adrenergic receptor (Homo sapiens), P07550. 340,000 tested, 0.43% active. response, % (concentration not given with the values);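 active = response above a set limit, near 3 SD of response in nonfluorescent compounds, cut at about 42% in these data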;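 also: stock transfer was 100 nL into about 11 µL; a reference agonist was the positive control; negative values mostly stem from fluorescent compounds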
LANA-H2B inh: blockers of LANA interaction with H2A/H2B – biochemical, FP readout, HTS, primary screen; Protein LANA1 (Human herpesvirus 8 type P (isolate GK18)), Q9QR71; cell-free LANA-H2A/H2B peptide, fluorescence polarization; inhibition, % (concentration not given with the values); 320,000 tested, 0.6% active; AID 2629, 2010; in the data active = inhibition mostly above about 10%, no sharp cut-off; inactive = mostly below about 6.7%;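 also: stock transfer was 7.5 nL into about 10 µL; 0% = median of vehicle wells and 100% = median of positive control wells; one replicate is shown; the record names a cut of 25% in any replicate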
Target sequence (Q9QR71 whole entry, looked up): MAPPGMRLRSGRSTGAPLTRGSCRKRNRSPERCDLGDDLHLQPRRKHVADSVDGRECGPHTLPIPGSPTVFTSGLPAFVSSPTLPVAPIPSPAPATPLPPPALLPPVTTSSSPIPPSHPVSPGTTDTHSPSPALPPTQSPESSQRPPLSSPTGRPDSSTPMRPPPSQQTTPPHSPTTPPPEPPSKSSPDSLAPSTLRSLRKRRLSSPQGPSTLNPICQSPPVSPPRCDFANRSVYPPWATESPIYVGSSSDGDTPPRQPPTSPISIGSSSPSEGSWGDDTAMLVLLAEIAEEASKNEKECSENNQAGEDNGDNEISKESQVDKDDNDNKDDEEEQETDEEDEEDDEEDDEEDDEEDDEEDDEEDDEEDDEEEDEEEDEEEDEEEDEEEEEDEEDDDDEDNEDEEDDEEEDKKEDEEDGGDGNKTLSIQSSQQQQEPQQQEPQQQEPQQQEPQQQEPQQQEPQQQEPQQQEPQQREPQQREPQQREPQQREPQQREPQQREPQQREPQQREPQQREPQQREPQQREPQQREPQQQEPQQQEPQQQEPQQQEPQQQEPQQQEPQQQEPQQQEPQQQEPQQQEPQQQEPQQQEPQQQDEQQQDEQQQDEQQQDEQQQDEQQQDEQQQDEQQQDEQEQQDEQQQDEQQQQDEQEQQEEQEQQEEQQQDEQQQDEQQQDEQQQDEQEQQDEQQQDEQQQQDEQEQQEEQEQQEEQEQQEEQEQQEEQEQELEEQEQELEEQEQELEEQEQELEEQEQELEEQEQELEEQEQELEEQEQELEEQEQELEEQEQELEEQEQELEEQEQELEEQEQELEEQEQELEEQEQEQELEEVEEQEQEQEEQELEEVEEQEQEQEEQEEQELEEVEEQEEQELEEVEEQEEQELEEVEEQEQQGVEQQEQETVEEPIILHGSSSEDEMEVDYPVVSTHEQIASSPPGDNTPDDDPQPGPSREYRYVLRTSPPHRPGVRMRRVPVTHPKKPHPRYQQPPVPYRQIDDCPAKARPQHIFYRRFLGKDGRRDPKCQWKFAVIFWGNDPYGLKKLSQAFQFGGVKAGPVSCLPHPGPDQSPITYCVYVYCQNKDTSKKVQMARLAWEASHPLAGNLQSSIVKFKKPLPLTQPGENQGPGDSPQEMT
ALR H2O2 inh: inhibitors of human ALR sulfhydryl oxidase, primary screen, biochemical, H2O2 detection, HRP-luminol luminescence, single point. inhibition, % (no concentration beside the values). FAD-linked sulfhydryl oxidase ALR (Homo sapiens), P55789. 290,000 tested, 3.8% active. purified ALR, DTT oxidation;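 active = mean and each replicate at 75% or more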;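 also: stock transfer was 7.5 nL into about 7.5 µL; 0% = neutral wells and 100% = wells with inactivated enzyme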
Ecoli growth: E. coli growth inhibition, primary screen, OD600; Escherichia coli growth, 23 h; active compounds read low; OD600 absorbance (concentration not given with the values); 330,000 tested, 0.21% active;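 active = OD600 absorbance below the run mean of sample wells minus 3.6 SD, in any replicate, cut at about 0.56 in these data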;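 also: stock transfer was 300 nL into about 60 µL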
HNF4A DNA FP: change in binding of human HNF4A to DNA, primary screen, biochemical, fluorescence polarization, FITC-DNA. 360,000 tested, 0.3% active. AID 1224865, 2016. Hepatocyte nuclear factor 4-alpha (Homo sapiens), P41235. activity change, % at 10 µM. 1 h; in the data active = activity change above about 30%, passing the limit was not always enough;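 also: controls were the assay level and a saturating level of protein; the project sought stronger binding though the title names inhibitors; some compounds called inactive have numbers as strong as hits; positive values seem to mean higher polarization but the record does not say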
An asterisk follows results filed as active; i = inactive; . = no result given; + = active, no number. Some of the compounds tested; rates above refer to the full screens.

Every second line gives: Beta2AR agonist, Ecoli growth, UCH37 inh, HNF4A DNA FP, FGF22 binding, LANA-H2B inh, ALR H2O2 inh
> Cc1ccc2c(c1)-c1cc(C)nn1C(c1sccc1C)N2 (stereo unspecified)
    22, 0.62, -60, 6.4, ., -2.0, 4
> COc1cc2c(cc1NC(=O)COC(=O)CNC(=O)c1ccccc1)oc1ccccc12
    1, 0.72, -11, 1.8, i, 4.0, -53
> COc1ccccc1Oc1coc2cc(OC(=O)N3CCOCC3)ccc2c1=O
    -1, 0.72, 3.6, 3.6, ., 0.5, 44
> COC(=O)C1=C(O)/C(=C\c2ccc(CNS(=O)(=O)c3ccc(Cl)cc3)o2)N=C1C
    7, 0.69, 0.2, 9.1, i, 2.7, -6
> CSc1ncc(CN2CCN(CCC(C)C)C(CCO)C2)cn1 (stereo unspecified)
    -4, 0.7, -5.6, 0.6, i, 1.0, 9
> CC1CCN(c2ccc(/C=C(\C#N)c3nn(-c4ccccc4)c(N)c3C#N)cc2[N+](=O)[O-])CC1
    -2, 0.72, 1.7, -0.3, ., 4.9, -4
> CC(=O)N(c1ccc(N(C(C)=O)S(=O)(=O)c2cccs2)cc1)S(=O)(=O)c1cccs1
    12, 0.68, 4.4, -2.1, ., 1.8, 5
> Cc1cc(C)c(C2=NOC3C4CCC(C4)C23)c(C)c1 (stereo unspecified)
    0, 0.67, -0.5, 0.0, i, 2.2, -21
> COc1ccc(N2CCN(C(=O)C3CCN(S(=O)(=O)c4cccs4)CC3)CC2)cc1
    6, 0.72, 0.5, 0.1, i, -2.6, 45
> CCOC(=O)CSc1n[nH]c(-c2ccco2)n1
    0, 0.72, 1.3, 3.8, i, 1.4, .
> COc1ccccc1C(=O)NC(=O)COC(=O)CNC(=O)c1ccc(Cl)c([N+](=O)[O-])c1
    -5, 0.71, 0.6, -5.6, i, -8.7, -8
> C[C@]12CC[C@@H]3c4ccc(OC(=O)c5ccccc5)cc4CC[C@H]3[C@@H]1CC[C@@H]2O
    14, ., 2.6, -1.5, i, 6.0, -14
> COc1ccc(Br)cc1/C=N/NC(=O)Cn1nnnc1N
    -1, ., ., 2.6, i, -9.5, 3
> CCOC(=O)/C(=N/Nc1ccc(OC)cc1)Sc1nnc(CCc2ccccc2)n1-c1ccccc1
    -2, ., ., -0.2, i, 1.8, 71
> Cc1ccc2nc(SCC(=O)N3CCCC3)nc(=O)n2c1
    0, 0.65, -7.3, -4.3, i, 0.1, -5
> Nc1nc(N)nc(-c2ccccc2-c2nc(N)nc(N)n2)n1
    -3, ., ., -5.2, i, -2.7, 4
> CCC(=O)Nc1c(C(=O)Nc2cccc(OC)c2)oc2ccccc12
    2, 0.65, -3.5, 2.0, ., -5.7, -10
> CCCC1(C(=O)OCC)NC(c2ccco2)C2C(=O)N(C)C(=O)C21 (stereo unspecified)
    0, 0.69, -1.3, -0.4, i, 2.4, -13
> COc1ccc(OC)c(C2=Nn3c(nnc3-c3cc(OC)c(OC)c(OC)c3)SC2)c1
    21, 0.67, 4.6, 0.7, ., -1.2, -1
> CCOCCCn1c(SCC(=O)Nc2ccc3[nH]c(=O)[nH]c3c2)nc2ccccc2c1=O
    10, 0.66, 0.5, -2.0, i, -7.7, 12
> O=C1NCC(=O)N(Cc2ccccc2)/C1=C/c1ccccc1
    5, 0.67, 2.7, -2.9, i, -2.0, -19
> NC(=O)c1ccsc1NC(=O)COC(=O)c1cnccn1
    5, 0.62, 1.3, 4.9, i, 2.2, 9
> Cc1ccc(SCC(=O)Nc2c(Br)cnn2C)cc1
    -2, 0.67, 3.1, -1.4, i, -5.8, -4
> Cn1nc(C(=O)NCc2ccc(F)cc2)c2ccccc2c1=O
    -4, 0.69, -0.3, -3.6, ., 5.9, -4
> O=[N+]([O-])c1cc(C(F)(F)F)ccc1NCCc1ccncc1
    7, 0.66, 6.7, 1.4, i, 6.0, -4
> COc1ccc(NC(=O)N(CCc2ccccc2)Cc2cc3c(C)cc(C)cc3[nH]c2=O)cc1
    -3, 0.65, 1.8, 5.3, ., 1.6, -59
> Cc1[nH]c(=O)[nH]c(=O)c1NC(=O)CSc1ncccc1-c1nc2ccccc2[nH]1
    -8, 0.73, -26, 8.5, i, 2.1, -4
> N=c1sccn1CC(=O)Nc1cc(S(=O)(=O)N2CCCC2)ccc1Cl
    5, 0.71, 3.7, -0.1, i, -1.8, 3
> COc1ccccc1CNC(=O)C1Cc2cc(S(=O)(=O)N3CCCC3)ccc2N1C(C)=O (stereo unspecified)
    5, 0.73, 2.1, -1.1, i, -1.0, -13
> CCc1nnc(SCC(=O)Nc2ccc(N3CCOCC3)cc2)o1
    0, 0.73, -1.3, -0.8, ., -2.7, 11
> Clc1cccc(Cl)c1/C=N\Nc1nccs1
    -4, ., ., 2.4, ., -2.3, 7
> O=C(Nc1ccc(S(=O)(=O)C(F)F)cc1)c1ccc2c(=O)n3c(nc2c1)CCC3
    17, 0.72, 0.1, 1.3, i, 2.4, 0
> NNC(=O)c1cc(C23CC4CC(CC(C4)C2)C3)[nH]n1
    -4, 0.73, 4.0, -0.6, i, -4.9, -32
> CCOC(=O)c1cc2c(ccc3nc(C)c(C)c32)[nH]c1C
    -1, 0.67, -94, -1.0, i, -3.5, -13
> CC(C)(C)NS(=O)(=O)c1ccc(NC(=O)Cc2ccccc2[N+](=O)[O-])cc1
    10, 0.68, 0.1, -1.6, i, -3.0, -11
> CCC1=C(OC(=O)N(CC)CC)N2C(=O)OC(=NCC(=O)OC)[C@]2(Cc2ccccc2)[C@H]2C1=CC[C@H]1C(=O)NC(=O)[C@H]12
    0, ., 4.2, -2.2, i, 0.7, .
> CC#CCN1c2ccccc2[C@]23C[C@@H](C(=O)OC)N(C(=O)NC4CCCCC4)C2=NC(C(=O)OC)=C(C(=O)OC)[C@H]13
    5, ., -0.1, 0.7, i, 1.4, -14
> Cc1cc2ncn(-c3ncnc4sc5c(c34)CCCC5)c2cc1C
    ., 0.78, 3.7, ., ., -4.8, -3
> NC(=S)N/N=C\c1ccc(-c2cccc(Cl)c2Cl)o1
    -1, ., ., 17, ., -2.3, -5
> O=C(N/N=C/c1ccc(-c2cccc([N+](=O)[O-])c2)o1)c1ccc([N+](=O)[O-])cc1
    6, ., ., -3.4, +, 0.3, 0
> CC(=O)Nc1nc2ccccc2n1Cc1ccccc1
    3, 0.68, 4.4, 4.8, i, -2.9, 7
> Cc1nn(C)cc1C(C(=O)NC1CCCCC1)N(C(=O)Cc1cccs1)c1ccc(C(C)C)cc1 (stereo unspecified)
    -5, 0.71, 4.1, 6.5, ., 6.1, -1
> CC(C)OCCCNc1nc(Cl)nc2c1cnn2C
    -1, 0.69, -1.2, -5.2, i, ., .
> O=C(O)CC(CNS(=O)(=O)c1cccc2nsnc12)c1ccccc1 (stereo unspecified)
    -11, 0.69, 1.0, -0.2, i, -4.8, -3
> COC(=O)c1cc(NC(=O)c2cc(-c3ccc(Cl)cc3)oc2C(F)(F)F)ccc1N1CCOCC1
    12, 0.71, 3.1, 6.5, i, -2.0, -3
> Cc1ccc(S(=O)(=O)N2CCN(CC(=O)N/N=C\c3cccnc3)CC2)cc1
    -7, ., ., 0.8, ., 0.5, .
> Cc1c2c(=O)n(-c3nc4ccccc4s3)nc-2cc(O)n1Cc1ccccc1
    6, 0.65, 1.0, -7.3, ., ., .
> O=C(Cn1cccc1C(=O)c1ccccc1)NCc1ccccc1
    -5, 0.68, 1.7, 0.9, ., -1.9, -22
> O=C(NCCc1ccccc1)C(=O)NCC1CCNCC1
    ., 0.69, 5.1, ., ., 2.9, .
> CCCn1c(=O)c(C(=O)Nc2cc(C)ccn2)c(O)c2ccccc21
    -5, 0.65, -1.6, -0.7, i, 3.5, .
> CC1CCN(CCCOc2ccc(OCc3ccccc3)cc2)CC1
    6, 0.69, 1.8, -0.5, ., -3.3, -2
> O=C(Nc1ccc(F)c(F)c1)C1CCCN(S(=O)(=O)c2cccc3nonc23)C1 (stereo unspecified)
    1, 0.7, -19, 10.0, i, -1.7, -8
> CC(=O)Nc1ccc(N2C(C(C)=O)=NN(c3ccccc3)C2c2cccs2)cc1 (stereo unspecified)
    0, 0.76, -6.8, 2.4, ., 2.6, 6
> c1cnc2c(C3NCCc4c3[nH]c3ccccc43)cccc2c1 (stereo unspecified)
    8, 0.73, 0.1, 4.7, ., -6.2, -21
> O=C(O)C1CCCCC1C(=O)NCCc1ccc(Cl)cc1 (stereo unspecified)
    4, 0.69, 4.4, -3.4, ., -2.1, .
> CCC(C(=O)Nc1ncn[nH]1)(C(F)(F)F)C(F)(F)F
    -2, 0.64, 1.5, -5.1, ., 2.1, -6
> Cc1nn(C(C)C)c(C)c1CN1CCCC(CCC(=O)NCc2ccccc2F)C1 (stereo unspecified)
    7, 0.67, 4.0, -6.8, i, -2.5, -1
> O=C(NCCc1ccc(F)cc1)c1ccc([N+](=O)[O-])cc1
    1, 0.71, 0.2, 0.5, ., -0.5, -11
> COc1ccc(Br)cc1CN1CCSCC1
    -3, 0.64, 4.5, -0.3, i, -5.9, 0
> CCn1nnc(-c2ccccc2NS(=O)(=O)c2ccc(C(=O)OC)cc2)n1
    -1, 0.69, 3.6, 2.6, ., -7.6, -3

More records follow:
Every second line gives: Beta2AR agonist, Ecoli growth, UCH37 inh, HNF4A DNA FP, FGF22 binding, LANA-H2B inh, ALR H2O2 inh
> O=C1C=C(c2ccccc2)CC(c2cccs2)C1n1cnc([N+](=O)[O-])c1 (stereo unspecified)
    -4, 0.76, 4.3, 2.5, ., -2.7, 5
> O=c1[nH]c2ccccc2n2c(C(F)(F)F)nnc12
    -5, 0.68, -9.0, 0.3, i, 0.1, .
> O=C(O)c1cccc([N+](=O)[O-])c1C(=O)Nc1cccc2ccccc12
    7, 0.67, -3.3, 1.4, i, 1.4, .
> COCC(=O)Nc1ccc(S(=O)(=O)Nc2nccs2)cc1
    1, 0.62, 0.0, -0.2, i, 4.3, -12
> CCOC(=O)C1=C(C(=O)OCC)N(CC2CCCCC2)CCC1=O
    0, 0.71, 5.3, -2.1, i, ., .
> CCOC(=O)c1ccc(NC(=O)CN(C)S(=O)(=O)c2ccc(OC)cc2)cc1
    -2, 0.71, -0.1, -1.0, ., 0.2, -15
> CCn1c2ccccc2c2cc(NS(=O)(=O)c3ccccc3C)ccc21
    6, 0.81, 1.7, 7.5, ., -0.7, -28

Full records, quoted from the list. Screens in order: Beta2AR agonist	Ecoli growth	UCH37 inh	HNF4A DNA FP	FGF22 binding	LANA-H2B inh	ALR H2O2 inh
CCOC(=O)C1=C(C(=O)OCC)N(CC2CCCCC2)CCC1=O in the list: 0	0.71	5.3	-2.1	i	.	.
O=c1[nH]c2ccccc2n2c(C(F)(F)F)nnc12 in the list: -5	0.68	-9.0	0.3	i	0.1	.

Source: PubChem BioAssay
